Rce1 inhib – blocks yeast Ras-converting enzyme. Q03530. yeast membranes, quenched prenylated peptide cleavage fluorescence. calls only. 0.27% of 290,000 active;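 active means fall in fluorescence gain of 50% or more versus controls, with final raw signal at or below 3038400; inconclusive means same 50% fall but final raw signal above 3038400; inactive means fall in fluorescence gain under 50%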;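 further: plate controls were neutral control wells for no effect and wells lacking membranes for full effect; tested at 10 µM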
eIF4H inh – inhibitors of RNA binding by human eIF4H; eIF4H fluorescence polarization binding assay; inhibition, % at 35 µM; 0.94% of 290,000 active;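 active means 50% or more with normal probe brightness, or confirmed in later tests; inconclusive means above 50% with abnormal brightness, or retests that disagree; inactive means below 50% or failed in later tests; about a fifth of its hits are not listed in these tables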;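 further: calls also rest on retests at 20 µM and on dose response follow-up; 0% = protein and probe with vehicle and 100% = probe without protein; strong numbers were not always called active; many hits fall short of the cut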
Env fusion inh – blocks HIV Env-driven cell-cell fusion; 1.1% of 360,000 active; inhibition, % at 12.3 µM; HeLa-JRFL Env/CEM21 cell fusion, luciferase;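 active means mean replicate inhibition score of at least 50 and every replicate individually at or above 50; inconclusive means only one of the two criteria met; inactive means mean below 50 and not all replicates reaching 50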;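 further: 0% = plate neutral controls and 100% = maraviroc near 300 nM; one replicate is shown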
MT1-MMP act inh – blocks activation of human MT1-MMP | GFP/RFP ratio change, % at 20 µM | 0.061% of 360,000 active | P50281 | HT1080 RFP-PRO-GFP cells, GFP/RFP ratio fluorescence, overnight; percent of plate control window, DMSO zero | AID 651647;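 active means GFP/RFP ratio change of at least 30% with cell ATP level not reduced by more than half and red fluorescence within 50% of control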; further: strong numbers were not always called active
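Test system: HT1080 RFP-PRO-GFP cells; Benchmarks: DMSO and RFP-L50D-GFP cell wells; Timing: cells overnight before dosing, compound overnight, 37 °C, 5% CO2; Compound: one 20 µM compound dose with 1% DMSO; Read-out: GFP/RFP fluorescence ratio.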
CSC inhib – cancer stem cell inhibition | 1.1% of 300,000 active | cancer stem cell-like cells viability, luminescence | inhibition, % at 7.5 µM | AID 2717;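 active means mean at 75% or more and at least half the replicates too; inconclusive means mean and replicates disagree; tested in HMLE shEcad cells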;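 further: 0% = median of negative and 100% = median of positive control wells; the first replicate is given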
PABP polyA inh – blocks human PABP binding to poly(A) RNA; AID 2014; fluorescence polarization; P11940; 1% of 290,000 active; inhibition, % at 35 µM;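 active means 50% or more with normal probe brightness, or confirmed in later tests; inconclusive means above 50% with abnormal brightness, or retests that disagree; inactive means below 50% or failed in later tests; about a fifth of its hits are not listed in these tables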;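 further: calls also rest on retests at 20 µM and on dose response follow-up; controls were probe without protein and protein plus probe with vehicle; some compounds called inactive have numbers as strong as hits; many hits fall short of the cut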
Target sequence (P11940 whole entry, looked up): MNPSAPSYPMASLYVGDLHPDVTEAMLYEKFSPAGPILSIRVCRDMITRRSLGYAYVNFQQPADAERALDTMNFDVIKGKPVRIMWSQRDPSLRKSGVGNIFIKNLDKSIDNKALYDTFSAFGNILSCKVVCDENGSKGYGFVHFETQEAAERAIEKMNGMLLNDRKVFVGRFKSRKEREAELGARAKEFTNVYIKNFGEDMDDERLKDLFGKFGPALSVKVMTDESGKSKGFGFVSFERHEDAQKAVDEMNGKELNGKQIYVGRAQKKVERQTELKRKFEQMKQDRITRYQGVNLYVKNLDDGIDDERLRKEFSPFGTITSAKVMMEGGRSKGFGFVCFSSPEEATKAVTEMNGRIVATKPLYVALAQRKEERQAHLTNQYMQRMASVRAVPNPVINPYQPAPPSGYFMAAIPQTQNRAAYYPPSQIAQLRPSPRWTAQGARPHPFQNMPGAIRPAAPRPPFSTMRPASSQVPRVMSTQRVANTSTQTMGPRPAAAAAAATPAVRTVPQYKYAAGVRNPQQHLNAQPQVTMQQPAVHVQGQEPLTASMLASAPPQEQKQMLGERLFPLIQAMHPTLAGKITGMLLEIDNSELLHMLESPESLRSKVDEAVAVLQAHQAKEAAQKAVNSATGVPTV
UUG fidelity – alters start codon recognition fidelity in yeast; activity score, % at 18.7 µM; AID 602363; S. cerevisiae UUG-firefly luciferase reporter, luminescence/redox ratio; 0.13% of 350,000 active;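 active means replicate mean at a twofold rise or more, about +100% in these data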;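 further: firefly luciferase made from a UUG start codon reports start codon fidelity; reporter light over untreated wells divided by growth signal over untreated wells; some hits fall short of that in this replicate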
eIF4H inh retest – recorded beside eIF4H inh, whose call it bears; inhibition, %; compound at 20 µM; confirmation average;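 mean of two retest wells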
PABP polyA inh retest – also measured in PABP polyA inh; calls as there; inhibition, %; compound at 20 µM; confirmation repeats;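 mean of two retest wells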
MT1-MMP act inh RFP – further read-out of MT1-MMP act inh, marked with its call; RFP signal change, %; measured here: RFP expression control read;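 0 = vehicle wells; hits needed this value within 50% of zero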
Active calls of the source: *; i = inactive; ? = inconclusive; nt = no result given; & = joins results of further samples. A portion of the library, so the mix of outcomes need not match the whole.

SMILES	Rce1 inhib	eIF4H inh	Env fusion inh	MT1-MMP act inh	MT1-MMP act inh RFP	CSC inhib	PABP polyA inh	UUG fidelity	others
CCC1=NN(C(=O)c2ccc(C)cc2)C(O)(c2ccc(Br)cc2)C1 (stereo unspecified)	i	-12	20	2	3	nt	7	-16
CCOc1ccc(/C=C/C(O)=C2/C(=O)N(C)C3(C)CC2c2ccccc2O3)cc1OC (stereo unspecified)	i	7	-15	-11	-23	78*	13	-11
COc1ccc(NC(=O)C[C@H]2C(=O)N(CCc3ccccc3)C[C@@H]2c2ccc(OC)cc2)cc1	nt	nt	-26	2	1	nt	nt	-12
Cc1ccc(CSCCNC(=O)CCSc2ccccc2)cc1	i	-13	nt	3	6	-10	-6	-11
N#CC(C#N)=C/C=C(\Nc1ccc(Cl)cc1)c1ccc(Cl)cc1	i	4	-13	-7	-4	0	-6	-6
O=C(Nc1cccc(-c2cn3ccccc3n2)c1)c1cccs1	i	5	-1	2	3	21	-9	nt
O=S(=O)(/N=C(/NNS(=O)(=O)c1ccccc1)c1ccccc1)c1ccccc1	i	0	13	1	5	0	3	nt
Cc1cc(OCC(O)CN2CCN(C)CC2)ccc1C(C)C (stereo unspecified)	i	-8	-20&-3	2&3	4&2	46	52	-6&-13	eIF4H inh retest=-4;PABP polyA inh retest=2
O=C(NCc1nnc(SCC(=O)N2CCC(Cc3ccccc3)CC2)o1)c1ccccc1F	i	-6	28	9	-8	-10	-16	11
O=C(O)CN1C(=O)C(=O)N(Cc2ccc(C(F)(F)F)cc2)C1=O	i	4	6	3	3	-21	-3	-8
CC1(C)Cc2cccc(C(=O)Nc3ccc(Cl)cc3)c2O1	i	-4	-4	0	1	18	10	nt
Cc1ccc(Cl)cc1NC(=S)N(Cc1ccccc1)Cc1cccnc1	i	2	-7	-1	2	-7	5	nt
CN(C(=O)c1sc2nc(N3CCCC3)c3c(c2c1N)CC(C)(C)OC3)c1ccccc1	i	5	9	-4	-1	14	9	-10
O=C(CSc1nc2nccnc2c(=O)n1Cc1cccs1)Nc1ccccc1F	i	-16	14	-7	2	2	4	18
CS(=O)(=O)N(CC(=O)Nc1ccccc1Sc1ccccc1)c1cccc(Br)c1	i	-10	nt	-2	-10	-19	2	-11
O=C(Cn1nc(Cl)nc1Cl)c1ccc2c(c1)OCCO2	i	-9	-7	-1	2	-7	-1	-12
Cn1c(N2CCOCC2)nc(-c2ccccc2)c1-c1ccccc1	?	3	2	-3	6	9	-3	7
C/C(=N/NC(=O)CNC(=O)c1ccco1)c1ccco1	i	-6	1	2	7	2	6	-30
Cc1ccc(OCCN(C)C)c([N+](=O)[O-])c1	i	-2	-13	0	1	-6	0	-2
Cc1cc(NC(=O)CSc2nnc(-c3ccco3)n2CC2CCCO2)no1 (stereo unspecified)	i	-1	0	1	2	1	-10	-14
O=C(CC1C(=O)NCCN1Cc1ccc(-c2ccccc2)cc1)NCc1ccncc1 (stereo unspecified)	i	10	-1	-4	1	16	4	nt
[O-]/C(=C(\C(=S)Nc1cccc2ccccc12)[n+]1cccc(CO)c1)c1ccc(Cl)s1	nt	11	-1	-3	6	nt	19	nt
CN1CCN(c2ccc([N+](=O)[O-])c(Sc3nc4ccccc4[nH]3)c2)CC1	i	-12	nt	7	-5	-2	-6	-13
CCOc1cccc(/C=N/NC(=O)CC2C(=O)NN=C2C)c1O (stereo unspecified)	i	2	-6	-1	-3	-9	8	nt
CCCC1(c2ccccc2)NC(=O)N(CCN2C(=O)c3ccccc3C2=O)C1=O (stereo unspecified)	i	-6	nt	1	0	-8	2	1
Cc1cc(=O)[nH]c2ccc(S(=O)(=O)N3CCOCC3)cc12	i	-1	3	3	3	6	-4	7
CCOc1ccc(NS(=O)(=O)c2ccc(NC(=O)c3ccccn3)cc2)cc1	nt	nt	15	7	-8	-1	nt	-15
C=CCNC(=O)COC(=O)c1cc(S(=O)(=O)N2CCCCC2)ccc1Cl	i	-4	6	-1	-3	-26	-12	14
COc1ccc(/C(C)=N/NC(=O)CCC(=O)Nc2ccc(Cl)cc2Cl)c(OC)c1	i	2	-13	2	2	23	5	nt
C=CCSc1nnc(NC(=O)CSc2nc3ccccc3[nH]2)s1	i	35	-15	-1	-2	nt	14	-30

Two records drawn at random from those above, as already listed:
SMILES	Rce1 inhib	eIF4H inh	Env fusion inh	MT1-MMP act inh	MT1-MMP act inh RFP	CSC inhib	PABP polyA inh	UUG fidelity	others
C=CCSc1nnc(NC(=O)CSc2nc3ccccc3[nH]2)s1	i	35	-15	-1	-2	nt	14	-30
O=C(Cn1nc(Cl)nc1Cl)c1ccc2c(c1)OCCO2	i	-9	-7	-1	2	-7	-1	-12

Later entries
SMILES	Rce1 inhib	eIF4H inh	Env fusion inh	MT1-MMP act inh	MT1-MMP act inh RFP	CSC inhib	PABP polyA inh	UUG fidelity	others
O=C(c1ccc(Cl)c(S(=O)(=O)N2CCOCC2)c1)N1CCN(c2ccccc2)CC1	i	-6	nt	1	-6	-4	-11	-7
COCCn1cnc2c1c(=O)n(CC(=O)OCC#N)c(=O)n2Cc1ccccc1	i	-6	-7	2	7	nt	-15	nt
O=C(/C=C/c1ccco1)NCCCN1CCN(CCCNC(=O)/C=C/c2ccco2)CC1	i	3	4	-5	-1	nt	1	-12
NS(=O)(=O)c1ccc(CCNC(=O)CNC(=O)C2CCCCC2)cc1	i	4	nt	1	1	-2	-2	0
COC(=O)c1ccc(C(=O)N2CCCC(N3CCN(c4ccccc4)CC3)C2)nc1 (stereo unspecified)	i	-5	2	-2	4	7	9	-16
CC(C)C[C@H]1CNC(=S)N1CC1CCN(CCC2CCCC2)CC1	nt	nt	-49	1	5	nt	nt	-28
COc1ccc([C@@H]2[C@@H](C(=O)C(C)(C)C)N3N=Cc4ccccc4[C@@H]3C23C(=O)OC(C)(C)OC3=O)cc1OC	i	27	4	-4	6	nt	32	nt
COCCCn1c(SCc2nnc(-c3ccc(OC)c(OC)c3)o2)nnc1-c1ccncc1	i	6	nt	1	4	-4	3	-16
CCCC(C)NC(=O)CN(Cc1ccco1)S(=O)(=O)c1ccccc1 (stereo unspecified)	nt	nt	nt	2	4	-11	nt	-6
CN1CCCCCC1C(=O)N1CCC(N2CCC(C(=O)N3CCOCC3)CC2)CC1 (stereo unspecified)	i	0	-4	-5	-1	8	25	-5
CC(C)n1c(NCc2nc3ccccc3n2C)nc2ccccc21	nt	-1	-30	-1	0	-12	-3	-24
Cn1c(SCC(=O)N2CCCc3ccccc32)nnc1-c1ccco1	i	-8	nt	1	1	-16	5	nt
S=C1NCN(C2CCCCC2)CN1c1ccccc1	i	3	-47	0	3	-11	-3	nt
COc1ccc(CN2C(=O)COc3ccccc32)cc1	i	-2	12	-3	0	4	6	-12
CCOc1cc(C(c2c(C)[nH][nH]c2=O)c2c(C)[nH][nH]c2=O)cc(Cl)c1O	i	-7	-5	10	1	-8	-14	-30
Brc1ccc(C2=CC(c3cccs3)n3ncnc3N2)cc1 (stereo unspecified)	i	?	11	-269	1	-3	?	-17
CN1CCc2c(n(CC(O)CN(CCO)CCO)c3ccccc23)C1=O (stereo unspecified)	i	5	-1	1	0	nt	-4	7
c1ccc(CCc2nn3c(C4COc5ccccc5O4)nnc3s2)cc1 (stereo unspecified)	i	-1	nt	-1	2	0	-1	-32
Cc1ccc(-c2nc(C#N)c(NCCc3ccccn3)o2)cc1	i	-5	nt	4	-8	-6	-1	-17
COc1ccccc1OCC#CCn1ccnc1	i	10	8	1	1	-3	-17	nt
CC(=O)N(c1ccc(C)cc1)S(=O)(=O)c1ccc(Cl)cc1	i	29	-20	-1	2	-11	1	nt
Cc1ccccc1NC(=O)Cn1cnc2c(oc3ccccc32)c1=O	i	0	-20	2	-1	-5	-15	-12
CC(NC(=O)Cc1c(F)cccc1Cl)C1CCCO1 (stereo unspecified)	i	0	8	1	3	-6	-9	3
O=C1CC2(CCCC2)C(=O)N1CN1CCN(S(=O)(=O)c2cc(F)ccc2F)CC1	nt	nt	-33	2	5	nt	nt	-4
c1ccc2nc(N3CCN(Cc4ccc5c(c4)OCO5)CC3)cnc2c1	i	-4	10	-1	0	-4	-1	-14
Cc1ccsc1C(=O)NNC(=S)NC1CCCCC1	i	8	1	4	-6	-4	0	-31
CCOCCCNC(=S)N1CCC(NC(=O)C23CC4CC(CC(C4)C2)C3)CC1	i	10	3	-1	4	-14	14	-19
Cc1nn(-c2ccccc2)c(C)c1/C=C/C(=O)OC(C)C(=O)Nc1ncc(Cl)cc1Cl (stereo unspecified)	i	7	-3	2	-2	1	6	11
COc1cccc(OC)c1C(=O)N1CCN(S(=O)(=O)c2ccc(C)cc2)CC1	i	-6	nt	1	3	-8	0	2
COC(=O)c1nc(NC(=S)NC(=O)c2cccs2)sc1C	i	2	-17	-6	-3	-9	13	-15
O=C(Nc1cccs1)NC1CCCC1	i	-1	nt	-5	1	18	18	-7
OC(CNCCCCNCC(O)C(F)(F)F)C(F)(F)F (stereo unspecified)	i	8	-3	0	4	0	1	nt
Cc1ccc2nc(Nc3ccc(C)c(C)c3)c3nncn3c2c1	i	2	-36	1	-2	-7	-9	-9
COc1ccc(/C=C/C(=O)Nc2ccccc2F)cc1S(=O)(=O)N1CCOCC1	nt	nt	0	4	-14	-14	nt	-12
CCC(=O)N=c1ccn(C2=Nc3ccccc3NC2=C(C#N)C#N)cc1	i	73*	3	3	1	1	64*	-7
Cc1noc(C)c1COc1ccccc1C(=O)N1CCN(S(=O)(=O)c2cccc([N+](=O)[O-])c2)CC1	nt	nt	0	-1	0	nt	nt	5
CC(C)Cc1ccc(-c2ccc3nccn3c2)cc1	nt	nt	-10	-3	-2	nt	nt	-16
O=C(NC1CCCCCC1)C1CCCN(c2ncccn2)C1 (stereo unspecified)	i	-7	-21	-1	-2	nt	1	-11
CC(C)c1ccc(N2C=Nc3ccc(C(C)C)cc3C2)cc1	i	-1	-5	0	-12	48	5	-8
COc1ccc(-c2noc(CCC(=O)NC3CCCCC3)n2)cc1	i	0	5	2	-2	-3	6	9
O=C(CCC(=O)OCc1ccc([N+](=O)[O-])cc1)Nc1ccc(F)cc1	i	2	-12	0	4	-3	-12	nt
Cc1cc(C)cc(N(C(=O)c2csnn2)C(C(=O)NC2CCCC2)c2ccccn2)c1 (stereo unspecified)	i	-3	-6	0	6	21	9	-10
CC(C=NNc1ccc([N+](=O)[O-])cn1)=Cc1ccccc1	nt	nt	-128	-7	-2	nt	nt	-12
COc1ccc(N2CCN(C(=O)C3CCCN(S(=O)(=O)c4ccc(F)cc4)C3)CC2)cc1 (stereo unspecified)	i	1	20	0	-6	12	7	20
CS(=O)(=O)NCC(c1ccco1)N1CCN(c2ccc(F)cc2)CC1 (stereo unspecified)	i	-6	-156	2	1	-6	-4	nt
COc1cc(SC)ccc1C(=O)Nc1ccc2c(c1)OCO2	i	4	-182	3	1	nt	7	nt

In the list so far, these have an NH in an aromatic ring.
SMILES	Rce1 inhib	eIF4H inh	Env fusion inh	MT1-MMP act inh	MT1-MMP act inh RFP	CSC inhib	PABP polyA inh	UUG fidelity	others
CN1CCN(c2ccc([N+](=O)[O-])c(Sc3nc4ccccc4[nH]3)c2)CC1	i	-12	nt	7	-5	-2	-6	-13
Cc1cc(=O)[nH]c2ccc(S(=O)(=O)N3CCOCC3)cc12	i	-1	3	3	3	6	-4	7
C=CCSc1nnc(NC(=O)CSc2nc3ccccc3[nH]2)s1	i	35	-15	-1	-2	nt	14	-30
CCOc1cc(C(c2c(C)[nH][nH]c2=O)c2c(C)[nH][nH]c2=O)cc(Cl)c1O	i	-7	-5	10	1	-8	-14	-30
